Compound activity: PubChem, National Center for Advancing Translational Sciences (NCATS)
Giardia killer = kills Giardia lamblia. 0.15% of 340,000 active. Giardia lamblia trophozoite viability. activity change, % at 7.66 µM, hits read low; in the data active = activity change below about -80%; inconclusive = between about -30% and that limit;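 note: parasites exposed to compound for two days anaerobically before the ATP read; % is set by controls: 0 for no effect and ±100 for the full control effect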
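Luminescence from cellular ATP indicates surviving trophozoites (100 cells/well) following 48 hrs anaerobic compound treatment at 37 deg C; signal develops 15-30 min at room temperature.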
NPC1 promoter act = activates the NPC1 promoter. Huh7 NPC1 promoter luciferase reporter, 24 h. Potency, µM (doses to about 9.22 µM), inactives show at the highest dose activation, most hits filed as activators. 2.4% of 320,000 active;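 note: potency is the fitted concentration of half-maximal effect; % of control where 0% means no effect; nearly all actives have a fitted effect of over 60% in size; reporter is driven by a mutant NPC1 promoter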
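Stable NPC1-promoter luciferase Huh7 line; cpd (DMSO) 24 h, 37 °C, 5% CO2; Amplite luciferase reagent 10 min RT; luminescence readout. qHTS format.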
Tb PFK block = blocks T. brucei phosphofructokinase. O15648. T. brucei PFK, ADP-Glo luminescence. Potency, µM (titrated, usually from 57.5 µM), without a hit: at the top dose activity, negative = inhibition, actives largely listed as inhibitors. 0.17% of 330,000 active. AID 485367;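 note: potency is the fitted concentration of half-maximal effect; 0% = uninhibited 1x PFK enzyme wells and -100% = no-enzyme wells; nearly all actives have a fitted effect of over 60% in size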
Target sequence (O15648 whole entry, looked up): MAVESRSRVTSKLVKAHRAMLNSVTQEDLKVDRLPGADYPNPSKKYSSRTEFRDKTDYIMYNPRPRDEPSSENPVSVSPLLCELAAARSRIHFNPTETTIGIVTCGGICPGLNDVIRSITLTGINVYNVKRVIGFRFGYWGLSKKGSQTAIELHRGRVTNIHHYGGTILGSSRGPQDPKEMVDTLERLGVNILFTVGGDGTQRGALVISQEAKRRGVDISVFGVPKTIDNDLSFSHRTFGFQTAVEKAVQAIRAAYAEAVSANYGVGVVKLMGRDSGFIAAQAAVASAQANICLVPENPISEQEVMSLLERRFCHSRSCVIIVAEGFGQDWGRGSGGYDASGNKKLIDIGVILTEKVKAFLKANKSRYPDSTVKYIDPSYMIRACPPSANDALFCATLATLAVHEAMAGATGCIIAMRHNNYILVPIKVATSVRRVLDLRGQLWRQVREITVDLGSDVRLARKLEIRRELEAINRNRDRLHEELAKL
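Luminescent ADP detection (ADP-Glo, two-step: ATP depletion then ADP-to-ATP conversion for luciferase) reported PFK activity after 45 min room-temperature reaction of 1.25 nM enzyme with 0.5 mM F6P and 0.1 mM ATP at pH 8.0.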
Coupling enz = coupling enzyme interference in Giardia aldolase counter-screen; coupling enzyme system counterscreen, AmpLite Red fluorescence; activity change, negative = inhibition, % at 58.2 µM, hits read low; 0.67% of 290,000 active; in the data active = activity change below about -30%; note: % is set by controls: 0 for no effect and ±100 for the full control effect
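First, compound is pin-transferred into glyceraldehyde-3-phosphate coupling-enzyme reagent at 57.5 uM final and held 10 min at RT. Next, substrate, coupling system and AmpLite Red are added. After 20 min RT, fluorescence (525/598 nm) is read.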
Rab9 prom act = activators of Rab9 promoter. Huh7 Rab9 promoter-luciferase reporter, luminescence, 24 h. Potency, µM (doses to about 9.22 µM), inactives show at the highest dose activation, negative = inhibition, usual class: activators. 2.8% of 320,000 active; note: potency is the fitted concentration of half-maximal effect; % of control where 0% means no effect; nearly all actives have a fitted effect of over 60% in size
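Using Huh7 cells stably transfected with Rab9 promoter–luciferase, compounds were incubated 24 h at 37 °C, 5% CO2; luciferase luminescence was read 10 min after reagent addition.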
uPA surface inh = blocks generation of uPA at the cell surface; cell surface uPA generation assay, qHTS; Potency, µM (highest dose often 38.3 µM), for inactives: at the top dose activity change, negative = inhibition, most hits filed as inhibitors; 0.31% of 330,000 active; active = well fitted inhibition curve with a large enough effect; inconclusive = small, poorly fitted or top-dose-only effect; inactive = no such curve, though single readings can be large or run the other way; tested in mouse RAW 264.7 cells; note: potency is the fitted concentration of half-maximal effect; % is set by controls: 0 for no effect and ±100 for the full control effect; nearly all actives have a fitted effect of over 55% in size
ELG1 genotox = inducers of genotoxicity in HEK293T ELG1-luciferase cells | Potency, µM (top dose mostly 46 µM), inactives show at the highest dose activity change, positive = activation, actives largely listed as activators | 1.3% of 330,000 active | AID 504466 | HEK293T ELG1-luciferase reporter, luminescence, 16 h; note: potency is the fitted concentration of half-maximal effect; % of control where 0% means no effect; nearly all actives have a fitted effect of over 60% in size
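Quantitative HTS format in 1536-well plates. HEK293T ELG1-luciferase reporter cells receive test compound and are incubated 16 hr at 37 °C, 5% CO2; ONE-Glo added, 30 min room temperature, then luminescence read.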
An asterisk follows results filed as active; ? = inconclusive; · = no result given; & = joins results of further samples; [ ] = remark or other dose. Unless noted, calls come from the whole dose curve; as a rule, active = well fitted curve in the direction sought with a large enough effect; inconclusive = small, poorly fitted or top-dose-only effect, or another doubt; inactive = no such curve, though single readings can be large; an effect the other way counts as inactive or inconclusive. These rows are one share of the data; the hit share may differ from the screen's.

Assay codes – A = Giardia killer; B = NPC1 promoter act; C = Tb PFK block; D = Coupling enz; E = Rab9 prom act; F = uPA surface inh; G = ELG1 genotox
CC[C@@H](CO)NC(=O)[C@@H]1C=C2c3cccc4[nH]cc(c34)C[C@H]2N(C)C1
  A = -11.5 | B = -15.6%[46.1 µM] | C = · | D = · | E = -14.5%[46.1 µM] | F = 2.4% | G = ·

Nc1ccccc1-[n+]1c(-c2ccccc2)cc(-c2ccccc2)cc1-c1ccccc1
  A = -1.8 | B = -0.1% | C = 0.0% | D = 0.8 | E = -13.3% | F = -4.8% | G = -12.8%

CCN(CC)C1=NC(=[N+](CC)CC)c2ccccc21
  A = -9.2 | B = -46.1%[inhibitor] | C = -15.3% | D = 2.4 | E = -30.9%[inhibitor] | F = · | G = -16.1%

OC(COCc1ccc(Cl)cc1)CN1CC=C(c2ccccc2)CC1 (configuration not stated)
  A = -6.5&1.0 | B = -1.8% | C = -16.0% | D = -1.6 | E = -2.0% | F = -1.2%&-0.5% | G = -5.4%

CCN1C[C@@]2(COC)[C@H]3[C@@H](OC)[C@H]4C1[C@@]3([C@H](OC)C[C@@H]2O)[C@H]1C[C@@]2(O)[C@@H](OC(=O)c3ccccc3)[C@@H]1[C@@]4(OC(C)=O)[C@H](O)[C@@H]2OC
  A = · | B = · | C = · | D = 1.5 | E = · | F = · | G = ·

O=C(c1cccc([N+](=O)[O-])c1)C12CN3CN(CN(C3)C1)C2
  A = 17.5 | B = -2.6% | C = 1.6% | D = 1.9 | E = -4.5% | F = · | G = -3.8%

CN(C)[C@@H]1C(=O)C(C(N)=O)=C(O)[C@@]2(O)C(=O)C3=C(O)c4c(O)cccc4[C@@](C)(O)C3CC12 (some centres not stated)
  A = · | B = · | C = · | D = -17.6 | E = · | F = · | G = ·

C[C@H]1O[C@H]1P(=O)(O)O
  A = -20.1 | B = -1.1%&-2.7% | C = -5.1%&1.3% | D = 6.9&0.3 | E = -3.3%&1.6% | F = 5.2% | G = 0.8%&3.6%

Clc1ccccc1N1CCN(Cc2ccc3c(c2)OCO3)CC1
  A = 14.8 | B = 0.5% | C = 0.9% | D = 0.6 | E = -0.9% | F = 12.0% | G = -4.2%

Cc1ccc(O)c([C@H](CCN(C(C)C)C(C)C)c2ccccc2)c1
  A = ? | B = -1.9% | C = 4.7% | D = 3.1&-0.1 | E = -0.9% | F = ? | G = -3.1%

Compounds from the list above with a carbonyl joined to an NH by a bond outside any ring:
Assay codes – A = Giardia killer; B = NPC1 promoter act; C = Tb PFK block; D = Coupling enz; E = Rab9 prom act; F = uPA surface inh; G = ELG1 genotox
CC[C@@H](CO)NC(=O)[C@@H]1C=C2c3cccc4[nH]cc(c34)C[C@H]2N(C)C1
  A = -11.5 | B = -15.6%[46.1 µM] | C = · | D = · | E = -14.5%[46.1 µM] | F = 2.4% | G = ·

CN(C)[C@@H]1C(=O)C(C(N)=O)=C(O)[C@@]2(O)C(=O)C3=C(O)c4c(O)cccc4[C@@](C)(O)C3CC12 (some centres not stated)
  A = · | B = · | C = · | D = -17.6 | E = · | F = · | G = ·

Next part.
Assay codes – A = Giardia killer; B = NPC1 promoter act; C = Tb PFK block; D = Coupling enz; E = Rab9 prom act; F = uPA surface inh; G = ELG1 genotox
CCC(CO)NC(=O)C1C=C2c3cccc4[nH]cc(c34)CC2N(C)C1 (configuration not stated)
  A = 5.3 | B = -2.1% | C = -5.0% | D = -21.1&-7.2 | E = 2.1% | F = 0.3% | G = 0.4%

Cc1[nH]c2ccc(OC(F)(F)F)cc2c1CCNCc1ccc(Cl)cc1
  A = 0.7 | B = -2.1% | C = 1.6% | D = -3.8 | E = -4.5% | F = 1.6% | G = -7.9%

O=C(O[C@@H]1Cc2c(O)cc(O)cc2O[C@@H]1c1cc(O)c(O)c(O)c1)c1cc(O)c(O)c(O)c1
  A = · | B = 0.2% | C = -20.9% | D = -6.3 | E = -0.6% | F = · | G = ·

C=CCn1c(O)c(C(C)=O)c(=O)[nH]c1=O (tested in a mixture with another compound)
  A = 2.6 | B = -0.7% | C = 5.0% | D = 0.6 | E = 1.0% | F = -6.3% | G = 4.5%

CN(C)C1C(=O)C(C(N)=O)=C(O)[C@@]2(O)C(=O)C3=C(O)c4c(O)cccc4[C@@](C)(O)C3C[C@@H]12 (some centres not stated)
  A = · | B = · | C = · | D = -14.6 | E = · | F = · | G = ·

CC(=O)[C@@H]1CC[C@H]2[C@H]3CC[C@H]4C[C@@H](O)CC[C@]4(C)[C@@H]3C(=O)C[C@@]12C
  A = · | B = · | C = · | D = -1.1 | E = · | F = · | G = ·

CCN1C[C@@]2(COC)C3[C@@H](OC)C4[C@@H]1C3([C@@H]1C[C@]3(O)[C@H](OC(=O)c5ccccc5)[C@@H]1[C@]4(OC(C)=O)[C@@H](O)[C@@H]3OC)[C@H](OC)C[C@H]2O
  A = · | B = 4.3%[46.1 µM] | C = · | D = · | E = -6.5%[46.1 µM] | F = · | G = ·

Oc1ccc(Cl)cc1Cc1ccccc1
  A = 6.2 | B = · | C = · | D = · | E = · | F = -17.7% | G = ·

CN(C)C1C(=O)C(C(N)=O)=C(O)C2(O)C(=O)C3=C(O)c4c(O)cccc4C(C)(O)C3CC12 (configuration not stated)
  A = 2.6 | B = 3.8% | C = -14.5% | D = -19.1 | E = -1.3% | F = -11.3% | G = 1.3%

ClC1C(Cl)C(Cl)C(Cl)C(Cl)C1Cl (configuration not stated)
  A = -28.9&-23.0 | B = 0.3%&-1.4% | C = 2.7%&-7.3% | D = 1.6&0.0 | E = -0.6%&-1.9% | F = 0.0%&16.5% | G = -1.6%&-1.1%

As entered above.
ClC1C(Cl)C(Cl)C(Cl)C(Cl)C1Cl (configuration not stated) in ELG1 genotox is entered as -1.6%&-1.1%
Cc1[nH]c2ccc(OC(F)(F)F)cc2c1CCNCc1ccc(Cl)cc1 in NPC1 promoter act is entered as -2.1%

3 compounds already listed, arranged by molar mass, high to low.
Assay codes – A = Giardia killer; B = NPC1 promoter act; C = Tb PFK block; D = Coupling enz; E = Rab9 prom act; F = uPA surface inh; G = ELG1 genotox
CN(C)[C@@H]1C(=O)C(C(N)=O)=C(O)[C@@]2(O)C(=O)C3=C(O)c4c(O)cccc4[C@@](C)(O)C3CC12 (some centres not stated)
  A = · | B = · | C = · | D = -17.6 | E = · | F = · | G = ·

CC(=O)[C@@H]1CC[C@H]2[C@H]3CC[C@H]4C[C@@H](O)CC[C@]4(C)[C@@H]3C(=O)C[C@@]12C
  A = · | B = · | C = · | D = -1.1 | E = · | F = · | G = ·

Cc1ccc(O)c([C@H](CCN(C(C)C)C(C)C)c2ccccc2)c1
  A = ? | B = -1.9% | C = 4.7% | D = 3.1&-0.1 | E = -0.9% | F = ? | G = -3.1%

More structures.
Assay codes – A = Giardia killer; B = NPC1 promoter act; C = Tb PFK block; D = Coupling enz; E = Rab9 prom act; F = uPA surface inh; G = ELG1 genotox
O=C(Cc1ccccc1)N1CCN(CC2CC3C=CC2C3)CC1 (configuration not stated)
  A = 0.7 | B = -5.6% | C = 0.9% | D = -0.7 | E = -6.3% | F = -6.9% | G = -0.4%

Clc1ccc(COC(Cn2ccnc2)c2ccc(Cl)cc2Cl)c(Cl)c1 (configuration not stated)
  A = -13.7&-13.3 | B = -2.5% | C = -5.6%&7.1% | D = 0.7&2.1&1.4 | E = -2.8% | F = ? | G = 0.1%&-5.0%

CCc1ccc(-n2c(O)c(C(C)=O)c(=O)[nH]c2=O)cc1 (tested in a mixture with another compound)
  A = ? | B = 0.3% | C = 1.6% | D = 1.9 | E = -2.7% | F = 1.3% | G = -0.2%

COP(=S)(OC)SCN1C(=O)c2ccccc2C1=O
  A = -25.2 | B = 26.7% | C = ? | D = 2.9 | E = -0.9% | F = -11.0% | G = 0.3%

CCN1C[C@]2(OC(=O)c3ccccc3NC(C)=O)CCC(OC)C34C5C[C@H]6C(OC)[C@]5(O)[C@](O)(C[C@@H]6OC)C(C[C@@H]32)[C@H]14 (some centres not stated)
  A = 2.0 | B = 2.1% | C = 3.0% | D = 1.3 | E = -6.3% | F = -1.1% | G = -1.4%

CCOC(=O)c1cc(CC)sc1/N=C/C1C(=O)NC(=S)NC1=O
  A = -6.1 | B = 0.1% | C = -8.7% | D = -38.8* | E = 3.4% | F = 2.1% | G = 2.3%

CC1=CC(=Cc2sc3ccccc3[n+]2C)C=C(C)O1
  A = 10.2 | B = -31.2%[inhibitor] | C = 1.4% | D = -0.4 | E = -33.9%[inhibitor] | F = 5.01µM* | G = -11.2%

O=S(=O)(c1ccc(Cl)cc1)N1CC1c1ccccc1 (configuration not stated)
  A = -11.5 | B = -1.5% | C = -0.6% | D = -2.9 | E = -2.2% | F = 4.3% | G = -0.4%

O=C(COc1ccc2ccccc2c1)N1CCN(Cc2ccncc2)CC1
  A = -11.3 | B = 0.0% | C = -18.0% | D = -2.4 | E = -5.7% | F = -2.1% | G = -6.0%

CN1CCN(CCCN2c3ccccc3Sc3ccc(Cl)cc32)CC1
  A = 3.3&13.0 | B = -29.4%[46.1 µM] | C = 1.7%&-0.2%&4.1% | D = -7.7&-10.7&-4.1&1.8 | E = -25.8%[46.1 µM] | F = ? | G = ?

CCc1ccc(CN2CCN(C(=O)Cc3ccccc3)CC2)cc1
  A = -6.3 | B = -4.2% | C = -2.8% | D = 0.1 | E = -6.8% | F = -3.4% | G = -6.6%
